# Source: PubChem
# ClpP mod = qHTS Assay for Activators of ClpP; purified B. subtilis ClpP, FRET peptide cleavage, 20 min; Potency, µM (top dose mostly 57.5 µM), for the others: at the top dose activity change, negative = active; actives 1.9% (n = 340,000); active = well fitted falling curve with a large enough effect; inconclusive = small, poorly fitted or top-dose-only effect; inactive = no such curve, though single readings can be large or run the other way; note: potency is the fitted concentration of half-maximal effect; the source files actives as falling curves though it sought activators and does not explain the sign; nearly all actives have a fitted effect of over 65% in size; many hits overshoot -100%
# Target sequence (P80244 whole entry, looked up): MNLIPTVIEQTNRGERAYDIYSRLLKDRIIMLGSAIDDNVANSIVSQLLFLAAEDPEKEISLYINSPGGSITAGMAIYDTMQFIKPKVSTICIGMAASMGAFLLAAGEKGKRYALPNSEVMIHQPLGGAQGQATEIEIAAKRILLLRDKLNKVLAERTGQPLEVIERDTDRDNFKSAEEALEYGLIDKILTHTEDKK
#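 ClpP 10 microg/mL final, pH 8 Tris/KCl buffer with BSA, glycerol, Tween-20; compound pinned in; FRET-FV substrate; RT 20 min; Ex320/Em430; ΔFRET vs ADEP 5.8 microM, DMSO, no enzyme.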
# gsp agonist = agonists of gsp mutant (McCune-Albright syndrome); Potency, µM (series often up to 76.9 µM), for the others: at the highest dose activation (cAMP increase), hits mostly activators; AID 624287; actives 0.13% (n = 340,000); gsp mutant cells, cAMP HTRF, 30 min; control for the full effect not named in the record; active = well fitted activation curve with a large enough effect; inconclusive = small, poorly fitted or top-dose-only effect, or another doubt; inactive = no such curve, though single readings can be large or run the other way; cell line not stated here;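 note: phosphodiesterase inhibitor Ro 20-1724 added with compounds to block cAMP breakdown; potency is the fitted concentration of half-maximal effect; nearly all actives have a fitted effect of over 60% in size; about a fifth of the inactives were tested at one dose only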
#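 Cells stably selected in G418 were plated at 2000/well, grown 16-24 hr, then given compounds in DMSO with the PDE inhibitor […] (300 uM solution added) for 30 min at 37C; cAMP was read by HTRF.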
# TRPV1 potentiator = enhances activation of the human vanilloid receptor TRPV1; TRPV1-expressing cells, Fluo-8 calcium influx, capsaicin EC20 potentiation; host cell line not named in the record; control for the full effect not named in the record; actives 0.02% (n = 320,000); potentiation, % at 8.33 µM; Q8NER1; active means potentiation above 80%; inconclusive means 30% to 80%; inactive means below 30%; note: 0% is about no effect
#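 TRPV1-expressing cells were cultured overnight at 35.5C and loaded with Fluo-8 calcium dye for 40 to 90 min at room temperature. After a 10 s baseline, compound was added and calcium influx was read kinetically for 3 min (ex 480/em 520 nm).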
# Menin-MLL FL inh = menin-MLL binding inhibition, fluorescein peptide; Fluorescence polarization, fluorescein-MLL peptide displacement from menin; FP activity change, % at 61.4 µM; 290,000 tested, under 10 active; inconclusive = falling polarisation curve, or a change in total fluorescence; inactive = total fluorescence flat and polarisation flat or rising; no compound was filed as active; the % refers to the polarisation; negative = inhibition;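 note: % of control where 0% means no effect; inhibitors lower the polarisation; unlabelled MLL peptide was the positive control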
# gsp antagonist = gsp mutant antagonism | gsp-mutant cells, cAMP HTRF, 30 min; control for the full effect not named in the record | Potency, µM (top dose mostly 76.9 µM), for inactives: at the top dose activity change, negative = inhibition, usual class: inhibitors | actives 0.4% (n = 340,000) | AID 624288; active = falling curve of any shape with a large fitted effect; inconclusive = falling curve, mostly with a smaller effect; inactive = flat or rising curve; cell line not stated here;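 note: intracellular cAMP measured with PDE inhibitor Ro 20-1724 present during compound exposure; potency is the fitted concentration of half-maximal effect; % is set by controls: 0 for no effect and ±100 for the full control effect; nearly all actives have a fitted effect of over 65% in size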
#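 HTRF cAMP measurement after 30 min RT detection following 30 min, 37C compound treatment alongside […] (added as 300 uM solution) in G418-selected cells seeded at 2000/well and grown 16–24 h.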
# TRPML1 inh = inhibitors of human TRPML1 channel | Q9GZU1 | TRPML1-inducible cells, Ca2+ dye fluorescence, FDSS; hits give low values; inhibition of EC80 agonist-evoked calcium signal | activity change, negative = inhibition, % (test concentration not listed) | actives 0.02% (n = 390,000) | AID 624415; in the data active means activity change below about -50%; inconclusive means about -30% to -50%; inactive means above about -30%;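 note: stimulus is agonist 54-4 at its EC80 concentration; % is set by controls: 0 for no effect and ±100 for the full control effect; compound concentration not given in the record; the text of the record puts the active cut at -80%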
# Target sequence (Q9GZU1 whole entry, looked up): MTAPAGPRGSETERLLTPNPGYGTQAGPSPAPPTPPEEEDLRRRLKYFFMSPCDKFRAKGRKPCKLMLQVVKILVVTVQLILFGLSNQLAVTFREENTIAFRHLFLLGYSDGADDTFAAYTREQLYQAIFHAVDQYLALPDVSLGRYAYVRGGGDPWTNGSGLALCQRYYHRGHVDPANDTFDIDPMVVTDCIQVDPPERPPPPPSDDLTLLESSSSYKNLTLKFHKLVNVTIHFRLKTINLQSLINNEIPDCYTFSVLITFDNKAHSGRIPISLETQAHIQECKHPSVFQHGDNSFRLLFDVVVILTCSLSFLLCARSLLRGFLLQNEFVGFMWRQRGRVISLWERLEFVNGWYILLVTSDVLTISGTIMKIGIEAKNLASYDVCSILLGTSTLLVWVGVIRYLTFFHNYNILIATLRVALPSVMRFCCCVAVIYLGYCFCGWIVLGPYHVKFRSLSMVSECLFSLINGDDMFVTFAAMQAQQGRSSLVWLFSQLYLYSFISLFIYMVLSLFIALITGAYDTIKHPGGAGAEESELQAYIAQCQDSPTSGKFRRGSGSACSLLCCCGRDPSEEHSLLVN
#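 Calcium fluorescence in TRPML1-DL cells induced overnight with Tet: a 110 s read after compound pin addition, then a 110 s antagonist read after challenge with 54-4 at 4 uM final (EC80).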
# Sfp PPTase inh = blocks B. subtilis Sfp PPTase activity; Biochemical Sfp PPTase activity, qHTS; Potency, µM, for inactives: max response, negative = inhibition, usual class: inhibitors; actives 3.5% (n = 310,000); AID 1490; active = well fitted inhibition curve with a large enough effect; inconclusive = small, poorly fitted or top-dose-only effect, or another doubt; inactive = no such curve, though single readings can be large or run the other way;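 note: the enzyme is Sfp with the accession as filed and its product quenches rhodamine fluorescence; potency is the fitted concentration of half-maximal effect; 0% = enzyme reaction without inhibitor and -100% = no enzyme wells; top concentration of the series not given in the record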
#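 With Hepes-Na pH 7.6 buffer containing 10 mM MgCl2, Sfp (15 nM) modified BHQ-2-YbbR (12.5 uM) using rhodamine-CoA (5 uM). Two reads 30 minutes apart at 525/598 nm yielded each well's rate.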
# Starred values were filed as active, the others as inactive; ? = inconclusive; / = not tested or not shown; [ ] = dose if it differs, or a comment.
# Short keys: A = ClpP mod; B = gsp agonist; C = TRPV1 potentiator; D = Menin-MLL FL inh; E = gsp antagonist; F = TRPML1 inh; G = Sfp PPTase inh
CCCCN(C)CCCNC(=O)CN1N=C(c2ccc(Cl)cc2)CCC1=O
  A = 2.1%; B = 5%[15.4 µM]; C = 0; D = -1.3; E = 11%; F = 2; G = -4%
CCC(=O)NC(=S)Nc1ccc(-c2nc3ccc(C)cc3s2)cc1
  A = 16%; B = -41%[inhibitor]; C = -2; D = /; E = -1%; F = -13; G = 16%
CC(=O)c1ccc(OC(C)c2nc3ccccc3s2)cc1 (centres undefined)
  A = /; B = 12%[15.4 µM]; C = -2; D = 4.1; E = -3%; F = -1; G = 14%
CCN1C[C@@H]2[C@@H]3C(=O)N(C)C(=O)[C@@H]3[C@](Cc3ccccc3)(C1=O)N2C(=O)c1ccc(C)cc1
  A = 1.1%; B = ?; C = /; D = /; E = 2%; F = 0; G = /
O=C(N/N=C/c1cccc(Oc2ccccc2)c1)c1ccc(O)cc1O
  A = -7.7%; B = -17%; C = -7; D = 5.1; E = -14%; F = 11; G = 3%
Cc1cc(C)n(C(=O)CCC2COc3ccccc3O2)n1 (centres undefined)
  A = -3.1%; B = 0%; C = -1; D = 0.6; E = 6%; F = 25; G = -11%
CC(=O)OCC1OC(n2ccc3ccccc32)C(OC(C)=O)C(OC(C)=O)C1OC(C)=O (centres undefined)
  A = 0.6%; B = -1%; C = -3; D = 2.9; E = -5%; F = -10; G = 14%
CC1CCC/C(=C\c2ccc(O)cc2)C1=O (centres undefined)
  A = -1.2%; B = 8%; C = /; D = /; E = 0%; F = 3; G = /
Cc1cc(Cc2cc(C)c(N)cc2C)c(C)cc1N
  A = -0.9%; B = ?; C = 8; D = 0.5; E = 5%; F = -25; G = -4%
Cn1c(=O)c2[nH]c(NN=Cc3cccc(Br)c3)nc2n(C)c1=O
  A = /; B = 1%; C = /; D = /; E = -26%; F = -19; G = /
c1ccc(Nc2ccc3c4c(cccc24)CC3)cc1
  A = 11µM*; B = 0%; C = 1; D = ?; E = -6%; F = 4; G = 1%
CC(=O)N[C@@H](Cc1c[nH]c2ccccc12)C(=O)OCC(=O)Nc1ccc(S(=O)(=O)N(C)C)cc1
  A = /; B = -15%[15.4 µM]; C = -6; D = -1.7; E = 0%; F = -8; G = 8%
O=C(CC1S/C(=N/N=C/c2cccnc2)NC1=O)Nc1ccccc1 (centres undefined)
  A = /; B = -2%[15.4 µM]; C = 7; D = 1.1; E = 6%; F = 11; G = -12%
COc1cc(/C=N/NC(=O)C2COc3ccccc3O2)ccc1O (centres undefined)
  A = /; B = 1%[15.4 µM]; C = -18; D = -1.7; E = 4%; F = -13; G = 8%
COc1ccc(C2CC(c3ccccc3)=NN2C(=O)COC(=O)c2cccc(S(=O)(=O)N(C)C)c2)cc1 (centres undefined)
  A = ?; B = -60%[inhibitor]; C = -10; D = 5.5; E = -2%; F = 11; G = -3%
Cc1cc(C(=O)Nc2cnn(Cc3ccc(Cl)cc3Cl)c2)no1
  A = 1.2%; B = ?; C = -21; D = 2.6; E = -3%; F = -11; G = -1%
CCOc1cc(N2CCOCC2)c(OCC)cc1NC(=O)c1ccc(OC)cc1
  A = /; B = -9%[15.4 µM]; C = ?; D = -2.5; E = 0%; F = -16; G = 5%
COC(=O)c1ccc(OCC(=O)c2ccc(O)cc2O)cc1
  A = 1.7%; B = 7%; C = -16; D = 0.8; E = ?; F = 6; G = 21%
Cc1ccc(S(=O)(=O)N2CCCC2C(=O)Nc2nc3ccccc3s2)cc1 (centres undefined)
  A = 0.2%; B = -31%; C = -12; D = -2.7; E = -28%; F = 21; G = -4%
CCN(CC)C(=O)c1sc(NC(=O)c2ccncc2)c(C(=O)OC)c1C
  A = -1.1%; B = -14%; C = -5; D = -0.1; E = 13%; F = -14; G = 28µM*

# 8 entries from above, with tabs.
Compound	ClpP mod	gsp agonist	TRPV1 potentiator	Menin-MLL FL inh	gsp antagonist	TRPML1 inh	Sfp PPTase inh
O=C(CC1S/C(=N/N=C/c2cccnc2)NC1=O)Nc1ccccc1 (centres undefined)	/	-2%[15.4 µM]	7	1.1	6%	11	-12%
COc1cc(/C=N/NC(=O)C2COc3ccccc3O2)ccc1O (centres undefined)	/	1%[15.4 µM]	-18	-1.7	4%	-13	8%
COc1ccc(C2CC(c3ccccc3)=NN2C(=O)COC(=O)c2cccc(S(=O)(=O)N(C)C)c2)cc1 (centres undefined)	?	-60%[inhibitor]	-10	5.5	-2%	11	-3%
Cc1cc(C(=O)Nc2cnn(Cc3ccc(Cl)cc3Cl)c2)no1	1.2%	?	-21	2.6	-3%	-11	-1%
CCOc1cc(N2CCOCC2)c(OCC)cc1NC(=O)c1ccc(OC)cc1	/	-9%[15.4 µM]	?	-2.5	0%	-16	5%
COC(=O)c1ccc(OCC(=O)c2ccc(O)cc2O)cc1	1.7%	7%	-16	0.8	?	6	21%
Cc1ccc(S(=O)(=O)N2CCCC2C(=O)Nc2nc3ccccc3s2)cc1 (centres undefined)	0.2%	-31%	-12	-2.7	-28%	21	-4%
CCN(CC)C(=O)c1sc(NC(=O)c2ccncc2)c(C(=O)OC)c1C	-1.1%	-14%	-5	-0.1	13%	-14	28µM*

# The list goes on.
# Short keys: A = ClpP mod; B = gsp agonist; C = TRPV1 potentiator; D = Menin-MLL FL inh; E = gsp antagonist; F = TRPML1 inh; G = Sfp PPTase inh
C[C@H](NC(=O)[C@@H]1Cc2ccccc2CN1C(=O)OC(C)(C)C)C(=O)NC1CCCCC1
  A = -0.4%; B = 27%; C = 8; D = 3.6; E = -10%; F = 4; G = 2%
CCOC(=O)N1CCN(C(=O)c2ccc3c(SCC(=O)O)c4c(nc3c2)CCC4)CC1
  A = -0.4%; B = -2%; C = -10; D = -0.5; E = -3%; F = -8; G = 15%
O=C(CSc1ccc(-c2ccc(F)cc2)nn1)N1CCN(c2ccccc2)CC1
  A = -1.3%; B = 16%[15.4 µM]; C = 14; D = -0.3; E = 7%; F = -18; G = 0%
CN(C1CCCCC1)S(=O)(=O)c1ccc2c(c1)CCC(=O)N2
  A = 0.7%; B = -8%; C = 17; D = /; E = -6%; F = 29; G = /
CC(C)C(NC(=O)c1ccccc1NC(=O)c1ccco1)C(=O)O (centres undefined)
  A = -1.2%; B = -5%; C = 6; D = 4.0; E = 4%; F = 6; G = 13%
CCN(CC)CCCNC(=O)c1cn(CC)c2ccc(S(=O)(=O)N(C)C3CCCCC3)cc2c1=O
  A = -6.1%; B = ?; C = 10; D = -2.4; E = 3%; F = 5; G = 4%
O=C(NC1CCCCC1)C(=O)c1c(-c2ccccc2)[nH]c2ccccc12
  A = 1.5%; B = 7%; C = -18; D = 5.1; E = -1%; F = 0; G = 2%
CCS(=O)(=O)c1nc(S(=O)(=O)c2ccc(C)cc2)c(N2CC(C)OC(C)C2)s1 (centres undefined)
  A = 1.7%; B = ?; C = 29; D = /; E = 4%; F = -1; G = 7%
COc1c2ccccc2nc2ccccc12
  A = /; B = ?; C = -5; D = -0.1; E = -9%; F = 4; G = 19%
COc1cccc(NC(=O)CCP(C)(=O)O)c1
  A = 1.4%; B = 0%; C = 27; D = 2.5; E = -1%; F = 5; G = 15%
CC(=O)NCCc1nc2ccccc2n1CCOc1cccc(C)c1
  A = 0.6%; B = -19%; C = -16; D = 0.7; E = 9%; F = 13; G = 22%
O=S(=O)(c1ccccc1)n1ccc(-c2cnc(-c3ccccc3)s2)n1
  A = 14µM*; B = 14%; C = /; D = 3.9; E = -16%; F = -10; G = -6%
O=C1C2CC=CCC2C(=O)N1c1n[nH]c(CCc2ccccc2)n1 (centres undefined)
  A = 0.2%; B = 0%; C = 13; D = 0.6; E = 8%; F = 10; G = 16%
CN1C(=O)C(=O)N(CC(=O)Nc2ccccc2OC(F)F)C1=O
  A = 0.8%; B = -37%[inhibitor]; C = -8; D = /; E = 8%; F = 2; G = /
CCOC(=O)C1=CC[C@]2(C)c3c(c4ccccc4n3C)C(=O)C1N2C
  A = -7.6%; B = /; C = 1; D = /; E = -2%; F = 7; G = /
Cc1nc2ccc(NS(=O)(=O)c3ccccc3Cl)cc2s1
  A = -3.0%; B = 7%; C = 2; D = /; E = -12%; F = 4; G = /
CCN(Cc1ccccc1)C(=O)Cn1cnc2c1c(=O)n(C)c(=O)n2C
  A = -0.1%; B = 5%; C = 2; D = 1.7; E = 9%; F = -12; G = 12%
Cc1cc(=O)n2nc(N3CCC(C(=O)NCCc4ccccc4)CC3)sc2n1
  A = -1.0%; B = 17%; C = -8; D = 2.8; E = -10%; F = 9; G = -2%
O=Cc1ccc2c(c1)OCCOCCOCCOCCO2
  A = -4.5%; B = 14%; C = /; D = /; E = /; F = -4; G = /
O=C(O)c1nc2ccccc2nc1C(=O)O
  A = -2.5%; B = 19%; C = -8; D = -1.2; E = 7%; F = 1; G = -8%
O=C(/C=C/c1ccc(S(=O)(=O)N2CCOCC2)cc1)NCCc1ccc(C(F)(F)F)cc1
  A = 2.5%; B = -31%[inhibitor]; C = 6; D = /; E = -8%; F = -5; G = /
CCOC(=O)c1sc(=NC(=O)CCS(=O)(=O)c2ccccc2)n(C)c1C
  A = /; B = -11%[15.4 µM]; C = 6; D = -1.8; E = 0%; F = -15; G = 19%
OC(CN1C2=NCCCN2c2ccccc21)c1ccc(Br)cc1 (centres undefined)
  A = 0.4%; B = -49%[inhibitor]; C = -24; D = 2.3; E = 9%; F = -10; G = 13%
COc1cc2c(cc1OC)CN(C(=O)c1ccccc1C(=O)O)CC2
  A = -7.3%; B = -30%[inhibitor]; C = 2; D = 1.1; E = 11%; F = 6; G = 6%
CCCCOc1cccc(C(=O)NC(=S)Nc2cccnc2)c1
  A = 2.2%; B = -15%; C = 6; D = 0.3; E = -1%; F = 7; G = -3%
COc1cc(Nc2nnc(C)s2)c(Cl)cc1Cl
  A = 0.3%; B = -5%; C = -3; D = -2.5; E = 10%; F = 9; G = -4%

# The order is random; overall some 4.9% were active at least once.
